High-throughput results (PubChem)
SARS PLP yeast = qHTS of Yeast-based Assay for SARS-CoV PLP | 0.19% of 330,000 active | S. cerevisiae expressing SARS-CoV PLpro, growth rescue; control for the full effect not named in the record | AID 485353, 2010 | Potency, µM (series often up to 32.9 µM), for the others: at the top dose activity, positive = growth rescue; active means well fitted rising curve with a large enough effect; inconclusive means small, poorly fitted or top-dose-only effect; inactive means no such curve, though single readings can be large or run the other way; also: 0% is about no effect; nearly all actives have a fitted effect of over 55% in size; growth read by luminescence after 48 h
Marburg entry inh = qHTS for inhibitors of binding or entry into cells for Marburg Virus. Marburg virus pseudotyped entry inhibition, cell reporter; control for the full effect not named in the record; about a third of the inactives were read at about 46 µM. Potency, µM (titrated, usually from 37.8 µM), for the others: at the top dose activity change, negative = inhibition, actives largely listed as inhibitors. 1.8% of 300,000 active. AID 540276, 2011; active = well fitted inhibition curve with a large enough effect; inconclusive = small, poorly fitted or top-dose-only effect, or effect the other way; inactive = flat fitted curve, though single readings scatter; tested in HEK293 cells; about a fifth of its hits are not listed in these tables; also: % is scaled to controls: 0 for no effect and ±100 for the full control effect; luciferase read-out
Cruzain inh noDet = qHTS Assay for Promiscuous and Specific Inhibitors of Cruzain (without detergent); AID 1476, 2009; 2.3% of 200,000 active; purified cruzain, Z-FR-AMC fluorescence, no detergent; Cruzipain (Trypanosoma cruzi), P25779; Potency, µM, without a hit: max response, negative = inhibition, most hits filed as inhibitors;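 also: plate controls were enzyme without inhibitor for no effect and buffer without enzyme for full effect; nearly all actives have a fitted effect of over 40% in size; top concentration of the series not given in the record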
Target sequence (P25779 123-467 limits assumed): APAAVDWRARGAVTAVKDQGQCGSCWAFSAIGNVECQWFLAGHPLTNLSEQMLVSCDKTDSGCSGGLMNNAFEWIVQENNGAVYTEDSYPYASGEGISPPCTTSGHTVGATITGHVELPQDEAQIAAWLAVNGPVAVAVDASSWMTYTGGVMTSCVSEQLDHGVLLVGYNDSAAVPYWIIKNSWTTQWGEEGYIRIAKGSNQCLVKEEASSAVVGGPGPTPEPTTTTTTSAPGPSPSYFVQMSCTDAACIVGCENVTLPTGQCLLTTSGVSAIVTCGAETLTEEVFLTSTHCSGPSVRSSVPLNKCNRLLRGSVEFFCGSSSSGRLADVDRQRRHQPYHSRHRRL
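Purified cruzain at 1.5 nM, pre-incubated 15 min with compound at room temperature in 100 mM sodium acetate pH 5.5, 5 mM DTT, 0.00005% Triton X-100. Reaction started with 2 uM Z-FR-AMC; AMC fluorescence increase over 60 s gives rate.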
NS1 function inh = qHTS Assay for Inhibitors of Influenza NS1 Protein Function; S. cerevisiae slowed by influenza A NS1, growth recovery by OD600; 0.4% of 270,000 active; Potency, µM (top dose mostly 46.1 µM), for inactives: at the top dose activity, positive = more growth; active means well fitted rising curve with a large enough effect; inconclusive means small, poorly fitted or top-dose-only effect; inactive means no such curve, though single readings can be large or run the other way; also: nearly all actives have a fitted effect of over 50% in size
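Growth recovery, yeast-based: influenza A NS1 expressed in S. cerevisiae causes slow growth, and suppressors are detected by OD600. The parent strain without NS1 is used as positive control.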
Lassa entry inh = qHTS for Inhibitors of binding or entry into cells for Lassa Virus; Lassa virus pseudotype entry inhibition, cell reporter; control for the full effect not named in the record; Potency, µM (highest dose often 37.9 µM), without a hit: at the highest dose activity change, negative = inhibition, most hits filed as inhibitors; 1.2% of 300,000 active; AID 540256, 2011; active means well fitted inhibition curve with a large enough effect; inconclusive means small, poorly fitted or top-dose-only effect, or effect the other way; inactive means flat fitted curve, though single readings scatter; tested in HEK293 cells; also: % is scaled to controls: 0 for no effect and ±100 for the full control effect; nearly all actives have a fitted effect of over 50% in size; luciferase read-out
Cruzain Triton = qHTS Assay for Promiscuous and Specific Inhibitors of Cruzain (with detergent); Cruzipain (Trypanosoma cruzi), P25779; purified cruzain, Z-FR-AMC fluorescence, 0.01% Triton; Potency, µM, inactives show max response, negative = inhibition, most hits filed as inhibitors; 0.43% of 200,000 active; AID 1478, 2009;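 also: plate controls were neutral wells for no effect and buffer without enzyme for full effect; nearly all actives have a fitted effect of over 40% in size; top concentration of the series not given in the record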
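Read-out: AMC fluorescence (360 nm excitation, 450 nm emission), four reads over 2 min, first-to-third difference used. Conditions: cruzain 1.5 nM, Z-FR-AMC 2 uM, pH 5.5 acetate, 5 mM DTT, 0.01% Triton X-100.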
2A StopGo = High Throughput Screening for Foot and Mouth Disease Virus Antivirals; human cells with a luciferase reporter of 2A StopGo recoding; control for the full effect not named in the record; Potency, µM (highest dose often 57.9 µM), for the others: at the top dose signal change, negative = less light; 1.2% of 410,000 active; AID 1159524, 2015; active = well fitted falling curve with a large enough effect; inconclusive = small, poorly fitted or top-dose-only effect; inactive = no such curve, though single readings can be large or run the other way; tested in HEK293T cells; also: % is scaled to controls: 0 for no effect and ±100 for the full control effect; nearly all actives have a fitted effect of over 45% in size; luciferase light after 4 h
RE007 growth inh = qHTS Assay for Inhibitors of the HIV-1 protein Vpr; S. pombe RE007 Vpr strain, BacTiter-Glo ATP luminescence, 24 h; control for the full effect not named in the record; Potency, µM (titrated, usually from 92.2 µM), inactives show at the highest dose activity change, negative = less growth; AID 651644, 2012; 0.21% of 360,000 active; active = well fitted falling curve with a large enough effect; inconclusive = small, poorly fitted or top-dose-only effect; inactive = no such curve, though single readings can be large or run the other way;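 also: % is scaled to controls: 0 for no effect and ±100 for the full control effect; nearly all actives have a fitted effect of over 50% in size; the assay follows cell death caused by Vpr and the record does not say whether a fall means rescue or toxicity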
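Fission yeast strain RE007, carrying one chromosomally integrated HIV-1 vpr copy, was seeded at OD 0.01 in PMG+AL medium with 23 nL pinned compound. After 24 h at 30 °C and 99% humidity, viability was read by BacTiter-Glo luminescence.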
* marks the source's active call; other numbers are inactive results; ? = inconclusive; . = no result given; & = joins results of further samples; [ ] = another dose, or the depositor's remark. Unless noted, calls follow the shape of the dose curve; as a rule, active = well fitted curve in the direction sought with a large enough effect; inconclusive = small, poorly fitted or top-dose-only effect, or another doubt; inactive = no such curve, though single readings can be large; an effect the other way counts as inactive or inconclusive. Potency is read from the fitted curve at half-maximal effect.

SMILES	SARS PLP yeast	Marburg entry inh	Cruzain inh noDet	NS1 function inh	Lassa entry inh	Cruzain Triton	2A StopGo	RE007 growth inh
Cc1cc(OCc2nn[nH]n2)c2c(-c3ccccc3)cc(=O)oc2c1	6%	21%	11%	-13%	18%	-4.4%	-4%	0%
COc1cc(/C=N/NC(=O)CC(=O)NC2CCCCC2)ccc1O	1%	-9%[46.1 µM]	.	5%	12%[46.1 µM]	.	24%	4%
Cc1ccc(NC(=O)CN2CCCCC2)c2c1CC(C)(C)O2	-3%	.	.	2%	.	.	10%	10%
Cc1ccc(N/N=C(\C#N)C(=N)N2CCCCCC2)cc1	-2%	?	.	.	?	.	-9%	6%
CCOC(=O)CCNC(=O)c1ccc2nc(C3CCCCC3)oc2c1	3%	8%[46.1 µM]	.	-15%	7%[46.1 µM]	.	13%	-6%
O=C(COc1ccc(-c2nnc(N3CCCCC3)c3ccccc23)cc1)N1CCCCC1	-1%	?	-5%	-19%	?	-4.0%	?	1%
Cc1ccsc1C(=O)C1CCCN(Cc2cccc(OCCO)c2)C1 (configuration not stated)	1%	?	.	-2%	9%[46.1 µM]	.	-3%	-23%
CC1CCN(S(=O)(=O)c2ccc(NC(=O)c3ccco3)cc2)CC1	1%	?	.	-13%	-33%	.	24%	0%
COc1cccc(CN2CCN(Cc3c(C)nn(C(C)C)c3C)CC2CCO)c1 (configuration not stated)	-1%	.	.	6%	.	.	-15%	-5%
CC(C)(C)Sc1nc(O)cc(=O)[nH]1	10%	7%	-3%	-10%	-11%	3.5%	-6%	-2%
O=C(Nc1nnc(Cc2ccccc2)s1)c1cccnc1	-2%	3%[46.1 µM]	.	-3%	-16%	.	19%	10%
CCOC(=O)/C(C#N)=C/c1cc2ccccc2nc1Cl	-5%	0%&-1%	2%	-1%	-5%	5.8%	5%	-7%
COc1ccc(CN2CCNC(=O)C2CC(=O)NCCC2=CCCCC2)cc1OC (configuration not stated)	-1%	.	.	3%	.	.	-9%	-21%
O=C(CCC1CCCC1)N1CCN(C2CCCC2)CC1	16%	?	7%	0%	24%	0.9%	-10%	21%
CCCCC(=O)Nc1c2c(nn1-c1ccc(C)cc1)CS(=O)(=O)C2	-1%	3%[46.1 µM]	.	-2%	0%[46.1 µM]	.	-21%	3%
COc1ccc(NC(=O)CSc2nc3ccccc3n2CC(=O)NCc2ccc(F)cc2)cc1	.	.	1%	.	-7%[46.1 µM]	-0.2%	-12%	.
CC1CCc2c(sc(NC(=O)COC(=O)c3ccccc3NCc3ccco3)c2C#N)C1 (configuration not stated)	-5%	12%	16µM*	5%	-12%	5.5%	0%	14%
Cc1ccccc1-c1nc(CN2CCSCC2)c(C)o1	0%	?	.	5%	10%	.	34%[activator]	-25%
COc1ccc(COC(=O)NNC(=O)c2ccc(OC)cc2)cc1	3%	7%	-1%	-8%	1.3µM*	-1.4%	14%	18%
CSc1nncc(-c2ccc(F)cc2)n1	-2%	0%	9%	-15%	5%	-0.9%	-5%	-11%
COC(=O)c1c(NC(=O)CN2CCC3(O)CCCCC3C2c2ccccc2OC)sc(C)c1C (configuration not stated)	-29%	?	3%	-14%	?	-8.8%	?	.
CCCCOc1ccc(-c2nnn(C(C)(C)C(=O)OC)n2)cc1	-9%	-4%	5%	-34%	?	-3.2%	0%	-19%
O=C(NC1CCCCC1)c1cc(Nc2ccccc2)nc2ccccc12	.	.	-13%	.	28%[46.1 µM]	-6.4%	-14%	.
Cc1[nH]nc2c1C(c1ccccc1F)NC2=O (configuration not stated)	1%	.	3%	2%	.	-0.1%	-18%	14%
COc1ccccc1N=C(C)C1=C(O)CC(c2ccccc2)CC1=O (configuration not stated)	1%	?	.	-70%	?	.	-27%	-20%
COCc1nnc(NC(=O)c2ccc(S(=O)(=O)N(C)C3CCCCC3)cc2)o1	?	-11%	?	-35%	-25%	-0.3%	5%	-1%
O=C(CNC(=O)c1ccncc1)N/N=C/c1cc(Br)ccc1OCc1ccccc1	0%	2%	.	-38%	?	.	?	3%
Cc1cccc(NC(=O)CSCC(=O)N(CCC(C)C)c2c(N)n(Cc3ccccc3)c(=O)[nH]c2=O)c1	0%	?	.	.	10µM*	.	-24%	2%
Cc1nn(CC(=O)N2CCC(C)CC2)c(=O)c2cc3occc3n12	.	7%[46.1 µM]	-5%	.	21%[46.1 µM]	-4.1%	-4%	.
COC(=O)C1CN(C(=O)COc2cc(C)cc(C)c2)c2ccccc2O1 (configuration not stated)	0%	.	.	-8%	.	.	3%	3%
CCC/S(CC1CC1(Cl)Cl)=N\S(=O)(=O)c1ccc(C)cc1 (configuration not stated)	8%	-7%	2%	-5%	0%	-2.0%	48%[activator]	6%
Cc1ccc2c(c1)N(CC(=O)NCCCc1ccccc1)C(=O)c1cccnc1O2	10%	.	.	-15%	.	.	?	16%
CCCn1c(-c2cc(OC)c(OC)c(OC)c2)nc2nc3ccccc3nc21	0%	6%	?	7%	8%	-7.6%	2%	11%[3.69 µM]
Cc1ccc(CN(C(=O)c2ccc(OCC(C)C)cc2)c2ccccn2)o1	.	?	-3%	.	17%[46.1 µM]	-9.3%	76%[activator]	.
CCCn1c(C(C)Nc2nc(-c3ccc(Cl)c([N+](=O)[O-])c3)cs2)nc2cc(Cl)c(N3CCCCC3)cc21 (configuration not stated)	3%	.	.	21%	.	.	-18%	-9%
C=CCNC(=O)C1CC(=O)N(c2ccc(C)cc2)C1 (configuration not stated)	5%	3%	-4%	-11%	.	5.4%	5%	8%
CCCCNC(=O)NS(=O)(=O)c1ccc(NC(=O)C(NC(N)=O)C(C)CC)cc1 (configuration not stated)	-2%	8%	.	-56%	16%	.	22%	3%
CN(c1ncnc2c1c(-c1ccccc1)cn2-c1ccc(F)cc1)C1CCCCC1	.	.	5%	.	-10%[46.1 µM]	2.6%	-24%	.
Cc1cc(C)c(S(=O)(=O)Nc2ccccc2)c(C)c1	.	-4%	.	.	?	.	25%	-12%
COc1ccc(OC)c(S(=O)(=O)N2CCC(C(=O)N3CCc4ccccc4C3)CC2)c1	-1%	?	?	-34%	-16%	-0.8%	-12%	17%
Cc1c(-c2nc(-c3ccc4c(c3)OCO4)no2)nnn1-c1ccc(Br)cc1F	.	.	-8%	.	4%[46.1 µM]	3.1%	32%[activator]	.
Cc1ccccc1C(=O)NNC1CC(=O)N(c2ccc3c(c2)OCCO3)C1=O (configuration not stated)	-1%	-4%	-2%	7%	18%	4.0%	-13%	6%
Nc1ccc2oc3ccccc3c2c1	2%	?	-6%	5%	11%	-5.3%	15%	-4%
CC(C)(C)c1ccc(C(=O)Nc2cccc(C(=O)N3CCOCC3)c2)cc1	2%	.	.	-9%	.	.	-20%	3%
Nc1cc(=O)nc(SCC(=O)Nc2ccccc2)n1-c1ccccc1	0%	17%	-12%	6%	-9%	?	-9%	-3%
O=C(CN1CCN(c2cccc(C(F)(F)F)c2)CC1)NCc1ccccc1	-5%	3%	.	-4%	8.9µM*	.	-25%	-11%
COc1ccccc1N1CCN(c2ccc3cc(S(=O)(=O)N4CCCCC4)ccc3n2)CC1	10%	?	-7%	-8%	?	2.2%	-9%&-14%	-8%
CCOC(=O)C1=C(COC(=O)CNC(=O)c2ccc(C(C)(C)C)cc2)NC(=O)NC1C (configuration not stated)	4%	29%	.	.	-4%	.	4%	-10%
Cc1ccc(CN2CCCn3nc(C(=O)NCCC(C)C)cc3C2=O)cc1	.	.	-1%	.	-6%[46.1 µM]	-1.0%	10%	.
O=C(O)CCCn1cc(NC(=O)c2ccc(Br)o2)cn1	0%	.	.	3%	10%	.	-6%	9%
COc1ccc(N(Cc2nnc3n2CCCCC3)C(=O)Nc2ccc(Cl)cc2)cc1Cl	.	.	-13%	.	2%[46.1 µM]	3.9%	-17%	.
CN1CCN(S(=O)(=O)c2ccc(Cl)c3ccccc23)CC1	2%	.	.	-9%	.	.	-7%	0%
COc1ccc(CCNc2cc(N3CCN(C(=O)c4ccccc4F)CC3)ccc2[N+](=O)[O-])cc1OC	-6%	?	5%	6%	?	2.0%	3.5µM*	-6%
CC1CN=C(Nc2cccc3ccccc23)S1 (configuration not stated)	5%	5%	0%	-14%	?	-2.7%	42%[activator]	-2%
CCc1ccc(N(C(C)=O)c2nc(CCl)cs2)cc1	1%	13%[46.1 µM]	.	-2%	-6%[46.1 µM]	.	-16%	6%
COc1ccc(C2=NS(=O)(=O)N(C)C(C(=O)Nc3cc(OC)c(OC)c(OC)c3)=C2)cc1	1%	?	.	-3%	?	.	-25%	2%
CCOC(=O)CCc1c(C)c(C#N)c2[nH]c3ccccc3n2c1=O	-19%	?	14%	-7%	-27%	-8.7%	?	-13%
CCOc1ccccc1C1N(c2ccc(F)cc2)C(=O)C2CCCN21 (configuration not stated)	4%	?	1%	-7%	20%	0.4%	-1%	-2%
O=C(COc1ccccc1)Nc1ccc2nc(SCC(=O)N3CCc4ccccc43)sc2c1	.	-2%[46.1 µM]	-8%	.	4%[46.1 µM]	-1.1%	-13%	.
CC(NS(=O)(=O)c1ccccc1)C1CC2CCC1C2 (configuration not stated)	.	?	.	.	19%[46.1 µM]	.	45%[activator]	18%
COc1ccc(N2CCN(C(CNS(=O)(=O)c3ccc(OC)c(C)c3)c3ccco3)CC2)cc1 (configuration not stated)	.	.	2%	.	5.6µM*	-4.4%	-3%	.
